Mtb H37Rv: Mycobacterium tuberculosis H37Rv growth inhibition, putative kinase inhibitor library, confirmatory dose response (AID 2842); inhibition, % at 10 µg/mL, or IC90 in µg/mL where a hit was titrated; M. tuberculosis H37Rv growth inhibition; higher % means a stronger effect; some inactives read as strong as hits; 5.2% of 24,000 active;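 active means confirmed in a dose series; inconclusive means mostly over 85% at the one dose but not retested; inactive means below 85% or not confirmed; about a fifth of its hits are not listed in these tables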;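 further: bacteria incubated one week before Alamar blue readout; 0% = bacteria only wells and 100% = bacteria with high antibiotic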
Numbers without * were called inactive; ? = inconclusive. This is a subset; the hit share may differ from the screen's.

SMILES | Mtb H37Rv
O=C1c2cccc3cccc(c23)C(=O)N1CCCSc1nnc(-c2cccs2)n1-c1ccccc1 | -4%
CCOC(=O)c1nn(-c2ccc(C)cc2)c(=O)c2c(NC(=O)C34CC5CC(CC(C5)C3)C4)scc12 | -14%
Cc1ccc(-n2c(SCC(=O)Nc3ccc([N+](=O)[O-])cc3)nc3c(c2=O)SCC3)cc1 | 11%
Cn1c(=O)c2c(nc(N3CCC(Cc4ccccc4)CC3)n2CCSc2nc3ccccc3s2)n(C)c1=O | 6%
COc1cc2c(cc1OC)C(COc1ccc([N+](=O)[O-])cc1)N(C(=O)c1ccco1)CC2 (stereo unspecified) | 2%
CCCSc1nnc(CSc2nc(C)cc(C)n2)n1C | -3%
O=C(CC(NCc1ccco1)C(=O)O)Nc1ccc(OC(F)F)cc1 (stereo unspecified) | -5%
Cc1cc(NC(=O)/C=C/c2ccc([N+](=O)[O-])s2)no1 | 4µg/mL*
c1ccc(OCCSc2nnc3sc4ccccc4n23)cc1 | 69%
CC1=C(C(=O)OCc2ccccc2)C(c2ccccc2)NC(=S)N1 (stereo unspecified) | 79%
Cc1ccccc1C(=O)NCCc1cc2c(C)ccc(C)c2[nH]c1=O | -7%
O=C1NC(c2ccc(F)cc2)C(C(=O)c2cccs2)C(O)(C(F)(F)F)N1 (stereo unspecified) | 8%
O=C(O)CCN1C(=O)S/C(=C\c2cccc([N+](=O)[O-])c2)C1=O | -3%
O=C(Cn1c(=O)c2sccc2n(CC(=O)Nc2ccc(F)cc2F)c1=O)NCCc1ccccc1 | -10%
CS(=O)(=O)c1cccc(-c2nnc(NC(=O)c3ccc(Br)s3)o2)c1 | 62%
CCCCOC(=O)C1=C(C)NC(=O)NC1c1cccc(F)c1 (stereo unspecified) | 12%
CC(=O)c1ccc(NC(=O)CSc2ncnc3c2nnn3-c2ccc(F)cc2)cc1 | -7%
O=C(Nc1c(C(=O)Nc2ccc(OC(F)(F)F)cc2)oc2ccccc12)c1ccccc1 | 14%
COc1cc(/C=N/n2cn[nH]c2=S)cc(Br)c1O | 5%
Cc1ccc(C)c(-c2nnc(NC(=O)c3cccc(C(F)(F)F)c3)o2)c1 | 83%
CC1=C(C(=O)Nc2ccc(C)cc2C)C(c2ccc(Cl)cc2)NC(=O)N1 (stereo unspecified) | -3%
Cc1ccc(N2C(=O)C(Cl)=C(Nc3cc(Cl)ccc3O)C2=O)cc1 | 25µg/mL*
Cc1ccc(NC(=O)CSc2ccc3nnc(-c4cccnc4)n3n2)cc1 | -3%
O=C(c1ccco1)N1CCN=C1SCc1cccnc1 | -3%
Fc1ccc2nc(N3CCCC3)sc2c1 | 66%
SMILES | Mtb H37Rv
CCc1ccc(NC(=O)c2oc3ccccc3c2NC(=O)c2cc3ccccc3o2)cc1 | -9%
Cc1ccc(C(=O)CSc2cc(C)[nH]c(=O)n2)cc1 | -16%
COc1ccccc1-n1nnc(C(=O)Nc2cccc(C(C)=O)c2)c1C | 7%
Cc1c(C(=O)Nc2c(N)nc(SCc3cccc(Cl)c3)[nH]c2=O)cccc1[N+](=O)[O-] | -5%
Cc1sc2nc(SCc3cc(=O)[nH][nH]3)nc(N)c2c1C | -3%
COc1ccc(NC(=O)c2oc3ccccc3c2NC(=O)C2CCCCC2)cc1OC | 4%
COc1ccc(N2CCN(c3nc4c(c(=O)n(C)c(=O)n4C)n3CCSc3nc4ccccc4s3)CC2)cc1 | -2%
COc1ccc(CNc2nc3c(-c4cccc(C)c4)nnn3c3ccccc23)cc1 | -7%
O=C(Nc1ncc(Cc2ccccc2)s1)c1ccccc1 | 13%
Cc1ccc(NC(=O)CC2Sc3ccc(C(F)(F)F)cc3NC2=O)cc1 (stereo unspecified) | -18%
CCOC(=O)COc1cccc2c(=O)n(CC(=O)Nc3ccccc3)ccc12 | -16%
CC(C)NC(=O)CSc1nc(N)c(NC(=O)c2ccco2)c(=O)[nH]1 | 1%
CCOc1ccc(Cc2nnc(Nc3ccccc3OCC)[nH]c2=O)cc1 | -11%
CCC(=O)Nc1c(C(=O)Nc2ccccc2)oc2ccccc12 | 2%
Cc1ccc2sc(NC(=O)c3ccc(C(C)(C)C)cc3)nc2c1C | 7%
Cc1ccc2c(c1)C(c1ccc(F)cc1)N(C(=O)c1ccccc1)CC(=O)N2 (stereo unspecified) | -1%
Cc1ccc2nc(NC(=O)CSc3nc(N)c(NC(=O)c4ccc(F)cc4)c(=O)[nH]3)sc2c1 | 2%
CCn1c(SCC(=O)NCc2ccco2)nc2c(c1=O)SC(C)C2 (stereo unspecified) | -4%
CCN(CC)S(=O)(=O)c1ccc(C(=O)ONC(=O)c2ccc(OC(F)F)cc2)cc1 | -14%
CNc1ncnc2c1oc1ccccc12 | 12%
COc1ccc(C2CC(c3c(-c4ccccc4)c4cc(Br)ccc4[nH]c3=O)=NN2C(=O)c2ccccc2)cc1 (stereo unspecified) | 1.1µg/mL*
CCc1nnc(NC(=O)CSc2nc3c(c(=O)n2CCOC)SC(C)C3)s1 (stereo unspecified) | -1%
CCSc1nnc(NC(=O)CSc2nnc3[nH]c(=O)c(C)c(C)n23)s1 | 4%
Cc1ccc(-n2ncc3c(NC(C)C)ncnc32)cc1Cl | 64µg/mL*
O=C(Nc1n[nH]c(=S)s1)c1ccco1 | -7%

Part of the list above, as comma-separated lines.
Compound,Mtb H37Rv
Cc1ccc(C(=O)CSc2cc(C)[nH]c(=O)n2)cc1,-16%
COc1ccccc1-n1nnc(C(=O)Nc2cccc(C(C)=O)c2)c1C,7%
Cc1c(C(=O)Nc2c(N)nc(SCc3cccc(Cl)c3)[nH]c2=O)cccc1[N+](=O)[O-],-5%
Cc1sc2nc(SCc3cc(=O)[nH][nH]3)nc(N)c2c1C,-3%
COc1ccc(NC(=O)c2oc3ccccc3c2NC(=O)C2CCCCC2)cc1OC,4%
COc1ccc(N2CCN(c3nc4c(c(=O)n(C)c(=O)n4C)n3CCSc3nc4ccccc4s3)CC2)cc1,-2%
COc1ccc(CNc2nc3c(-c4cccc(C)c4)nnn3c3ccccc23)cc1,-7%
O=C(Nc1ncc(Cc2ccccc2)s1)c1ccccc1,13%
Cc1ccc(NC(=O)CC2Sc3ccc(C(F)(F)F)cc3NC2=O)cc1 (stereo unspecified),-18%
CCOC(=O)COc1cccc2c(=O)n(CC(=O)Nc3ccccc3)ccc12,-16%
CC(C)NC(=O)CSc1nc(N)c(NC(=O)c2ccco2)c(=O)[nH]1,1%
CCOc1ccc(Cc2nnc(Nc3ccccc3OCC)[nH]c2=O)cc1,-11%
CCC(=O)Nc1c(C(=O)Nc2ccccc2)oc2ccccc12,2%
Cc1ccc2sc(NC(=O)c3ccc(C(C)(C)C)cc3)nc2c1C,7%

More records
SMILES | Mtb H37Rv
CCCCC(=O)Nc1nnc(-c2cc(C)ccc2C)o1 | -11%
N#CCC(=O)Nc1sc2c(c1C(N)=O)CCCC2 | 3%
OCCNc1nc(NCCO)c2cnn(-c3ccccc3)c2n1 | 1%
CCOC(=O)c1[nH]c2ccccc2c1NC(=S)Nc1ccccc1Cl | 7%
O=C(Nc1nnc(-c2ccncc2)o1)c1cc2c(ccc3ccccc32)oc1=O | -3%
COC(=O)c1ccc(N2C(=O)/C(=C/c3ccc(Cl)c([N+](=O)[O-])c3)SC2=S)cc1 | 2%
O=C(Nc1ccc(F)c(F)c1)c1oc2ccccc2c1NC(=O)C1CC1 | 4%
CCCc1nc(SCC(=O)Nc2ccc(Cl)c(Cl)c2)c2c(=O)n(C)c(=O)n(C)c2n1 | 4%
COC(=O)c1sc(N/N=C/c2cccnc2)nc1C | -5%
CC(=O)N1CCc2c(sc(NC(=O)c3ccccc3Br)c2C(N)=O)C1 | -1%
O=C(Cc1csc(NC(=O)c2cccs2)n1)NO | 1%
Cc1ccc2nc(NC(=O)CSC3=NN4CCCC(=O)N=C4S3)sc2c1 | 1%
CC1CCc2sc(NC(=O)c3ccc(Br)cc3F)c(C(N)=O)c2C1 (stereo unspecified) | 4%
CCCCCn1c(SCC(=O)CC(=O)OCC)nc2cc(C(=O)NCc3ccco3)ccc2c1=O | 4%
O=c1cc(Cc2nnc(SCc3cccnc3)n2-c2ccc(F)cc2)[nH]c(=O)[nH]1 | -3%
CCOC(=O)c1nn(-c2ccc(OC)cc2)c(=O)c2c(NC(=O)/C=C/c3ccccc3)scc12 | 2%
S=C(NCc1ccco1)N/N=C/c1ccncc1 | -1%
O=C(CSc1nccn(-c2ccc(F)cc2)c1=O)Nc1ccc(F)cc1F | -8%
COc1ccc(NC(=O)c2oc3ccccc3c2NC(=O)c2ccco2)cc1OC | -10%
COc1ccc(Cn2cc3c(-c4ccccc4)nnc-3c3cc(OC)c(OC)cc32)cc1 | 6.6µg/mL*
Cc1ccc(-c2csc(NC(=S)NC(=O)c3sc4ccccc4c3Cl)n2)cc1 | -5%
COc1ccc(/C(O)=C2/C(=O)C(=O)N(Cc3ccncc3)C2c2ccc(C)cc2)cc1F (stereo unspecified) | -18%
COC(=O)C1=C(N)Oc2c(oc(CO)cc2=O)C1c1ccc(F)cc1 (stereo unspecified) | -7%
COc1ccc(NC(=O)c2oc3ccccc3c2NC(=O)Cc2ccc(Cl)cc2)c(OC)c1 | 7%
Cc1cccc(-c2nnc(NC(=O)c3ccccc3Cl)s2)c1 | 6%
SMILES | Mtb H37Rv
COCCn1c(SC(C)C)nc2c1c(=O)[nH]c(=O)n2C | 11%
N#C/C(=C\c1ccc(-c2ccc([N+](=O)[O-])cc2)o1)c1nc(-c2ccco2)cs1 | -5%
Cc1cc(C)cc(-n2nnc3c(=O)n(CC(=O)Nc4cc(C)on4)cnc32)c1 | -2%
O=C(CSc1n[nH]c(=O)[nH]c1=O)N/N=C/c1ccccc1 | -2%
O=C(CN1C(=O)/C(=C/c2ccc(F)cc2)SC1=S)Nc1ccc([N+](=O)[O-])cc1 | -9%
COc1ccc(OC)c(C2CC(c3ccc(NS(C)(=O)=O)cc3)=NN2C(=O)c2cccs2)c1 (stereo unspecified) | 32%
CCOC(=O)Cn1c(=O)c2c(nc3n(-c4ccccc4F)c(C)c(C)n23)n(C)c1=O | 3%
COc1ccccc1NC(=O)CSc1nc(N)c(NC(=O)c2ccco2)c(=O)[nH]1 | -7%
CCOc1ccc2ccccc2c1C(=O)NCCc1cc2cc(C)c(C)cc2[nH]c1=O | ?
CC(CCc1ccccc1)NC(=O)Cc1cc(=O)[nH]c(=O)[nH]1 (stereo unspecified) | -6%
Cc1cnc(=O)[nH]c1SCc1c(F)cccc1Cl | -18%
O=C(CSc1ncnc2c1nnn2Cc1ccc(F)cc1)Nc1ccc2c(c1)OCO2 | 0%
CC(=O)Nc1ccc(Nc2ccc(S(C)(=O)=O)cc2[N+](=O)[O-])cc1 | 11%
COc1cccc(-c2ccc3nnc(SCC(=O)Nc4nc5ccccc5s4)n3n2)c1 | -11%
COc1ccc(CCC(=O)Nc2cc3c4c(c2)CCN4C(=O)CC3)cc1 | 5%
Cc1cc2cc(CCNC(=O)c3ccc(S(=O)(=O)N(C)C)cc3)c(=O)[nH]c2cc1C | -1%
CC1CCN(S(=O)(=O)c2ccc(C(=O)Nc3ccc(O)c(-c4nc5ccccc5s4)c3)cc2)CC1 | 75%
CC(C)(C)c1ccc(-n2c(=O)[nH]c3c(C(N)=O)nc(-c4cccc(F)c4)nc32)cc1 | -2%
COc1ccc(OC)c(NC(=S)NCCc2cc3ccc(OC)cc3[nH]c2=O)c1 | 2%
CCOC(=O)c1nn(-c2ccc(C(F)(F)F)cc2)c(=O)c2c(NC(=O)c3cccc(OC)c3OC)scc12 | 4%
COc1ccc(NC(=O)c2ccc3ncsc3c2)c2ccccc12 | 57%
COc1ccc(Cn2cc(S(=O)(=O)c3ccc(C(C)C)cc3)c(=O)c3cc(F)ccc32)cc1 | 3%
N#Cc1ccccc1NC(=O)c1coc2ccccc2c1=O | -11%
Cc1ccc(OCCCC(=O)Nc2sc3c(c2C#N)CCC(C)C3)c(C)c1 (stereo unspecified) | -17%
Cc1ccc(S(=O)(=O)N2CCCc3ccc(NC(=O)c4cccc([N+](=O)[O-])c4)cc32)cc1 | 18%
SMILES | Mtb H37Rv
CC1Cc2nc(SCC(=O)Nc3nccs3)n(Cc3ccccc3)c(=O)c2S1 (stereo unspecified) | -4%
Nc1nc(SCC(=O)Nc2ccc3c(c2)OCO3)[nH]c(=O)c1NC(=O)c1cccs1 | -14%
OCCNc1nc(-c2ccc(Cl)cc2Cl)nc2ccccc12 | 13%
Nc1ncnc(NCCC2=CCCCC2)c1[N+](=O)[O-] | 12%
O=C(CCCCl)Nc1nnc(-c2ccc(Br)cc2)s1 | 11%
CCc1nc2sc(C(c3cccs3)N3CCN(C(C)=O)CC3)c(O)n2n1 (stereo unspecified) | 13%
C=CCNC(=O)C(=O)c1c[nH]c2ccccc12 | 5%
CC1=NN(Cc2cc(C)ccc2C)c2nc3c(c(=O)n(Cc4cc(C)ccc4C)c(=O)n3C)n2C1 | -13%
Cn1c(=O)c2c(SCC(=O)Nc3ccc(C(N)=O)cc3)ccnc2n(C)c1=O | -8%
CCOc1ccc(NC(=O)COC(=O)c2cc(C(C)=O)n3ccccc23)cc1 | -16%
NC(=O)c1cc2c(ccc3ccccc32)oc1=Nc1ccc(F)cc1F | 11%
O=C1c2ccccc2C(=O)N1CCn1c2ccc(Cl)cc2c2nc3ccccc3nc21 | -3%
COc1cccc(-c2nc(C(N)=O)c3[nH]c(=O)n(-c4ccc5c(c4)OCO5)c3n2)c1OC | -7%
CCOc1ccc(-c2csc(NC(=O)CN3C(=O)CCC3=O)n2)cc1 | -14%
CC1C(=O)N2CCCc3cc(NC(=O)C(=O)NCCc4ccccc4)cc1c32 (stereo unspecified) | -1%

High-throughput results deposited in PubChem BioAssay by Southern Research Institute.
